Screening data deposited in PubChem by several laboratories.
MT1-MMP act inh – MT1-MMP (human) activation inhibition; P50281; HT1080 RFP-PRO-GFP cells, GFP/RFP ratio fluorescence, overnight; percent of plate control window, DMSO zero; GFP/RFP ratio change, % at 20 µM; hit rate 0.061% among 360,000;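 active means GFP/RFP ratio change of at least 30% with cell ATP level not reduced by more than half and red fluorescence within 50% of control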; further: strong numbers were not always called active
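Assay system: HT1080 cells carrying an RFP-PRO-GFP reporter | Dosing: Single dose of 20 µM compound, 1% DMSO final | Incubation: Cells overnight before dosing, compound overnight, 37 °C, 5% CO2 | Evaluation: GFP/RFP fluorescence ratio | Control set: DMSO and RFP-L50D-GFP cell wells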
Env fusion inh – inhibitors of HIV Env-mediated cell fusion | AID 651610 | hit rate 1.1% among 360,000 | HeLa-JRFL Env/CEM21 cell fusion, luciferase | inhibition, % at 12.3 µM;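 active means mean replicate inhibition score of at least 50 and every replicate individually at or above 50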;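 further: 0% = plate neutral controls and 100% = maraviroc near 300 nM; one replicate is shown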
Yeast UUG start – modulators of start codon recognition fidelity in yeast; S. cerevisiae UUG-firefly luciferase reporter, luminescence/redox ratio; activity score, % at 18.7 µM; hit rate 0.13% among 350,000;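 active means replicate mean at a twofold rise or more, about +100% in these data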;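 further: firefly luciferase made from a UUG start codon reports start codon fidelity; reporter light over untreated wells divided by growth signal over untreated wells; some hits fall short of that in this replicate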
eIF4H FP inh – inhibitors of RNA binding by human eIF4H | hit rate 0.94% among 290,000 | inhibition, % at 35 µM | Q15056 | AID 2012 | eIF4H fluorescence polarization binding assay;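 active means 50% or more with normal probe brightness, or confirmed in later tests; about a fifth of its hits are not listed in these tables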;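 further: calls also rest on retests at 20 µM and on dose response follow-up; 0% = protein and probe with vehicle and 100% = probe without protein; strong numbers were not always called active; many hits fall short of the cut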
Rce1 inh – inhibitors of yeast Ras-converting enzyme; calls only; yeast membranes, quenched prenylated peptide cleavage fluorescence; AID 2563; Q03530; hit rate 0.27% among 290,000;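 active means fall in fluorescence gain of 50% or more versus controls, with final raw signal at or below 3038400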;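 further: plate controls were neutral control wells for no effect and wells lacking membranes for full effect; tested at 10 µM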
Target sequence (Q03530 whole entry, looked up): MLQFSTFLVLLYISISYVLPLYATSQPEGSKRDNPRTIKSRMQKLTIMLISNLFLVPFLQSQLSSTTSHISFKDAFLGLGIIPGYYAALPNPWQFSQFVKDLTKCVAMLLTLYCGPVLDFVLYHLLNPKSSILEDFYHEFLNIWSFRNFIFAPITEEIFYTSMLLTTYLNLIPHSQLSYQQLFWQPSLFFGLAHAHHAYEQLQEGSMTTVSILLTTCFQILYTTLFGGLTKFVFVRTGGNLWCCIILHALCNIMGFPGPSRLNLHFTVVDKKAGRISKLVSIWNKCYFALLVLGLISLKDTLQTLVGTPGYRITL
PABP polyA inh – PABP-poly(A) binding inhibition | PABP-poly(A) RNA binding, fluorescence polarization | inhibition, % at 35 µM | hit rate 1% among 290,000 | AID 2014;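 active means 50% or more with normal probe brightness, or confirmed in later tests; about a fifth of its hits are not listed in these tables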;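 further: calls also rest on retests at 20 µM and on dose response follow-up; controls were probe without protein and protein plus probe with vehicle; some compounds called inactive have numbers as strong as hits; many hits fall short of the cut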
CSC inhib – cancer stem cell inhibition; inhibition, % at 7.5 µM; AID 2717; cancer stem cell-like cells viability, luminescence; hit rate 1.1% among 300,000;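 active means mean at 75% or more and at least half the replicates too; tested in HMLE shEcad cells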;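 further: 0% = median of negative and 100% = median of positive control wells; the first replicate is given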
MT1-MMP act inh RFP – second read-out of MT1-MMP act inh, no call of its own (marks repeat the call); RFP signal change, %; measured here: RFP expression control read;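 0 = vehicle wells; hits needed this value within 50% of zero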
An asterisk follows results filed as active.

Results for COc1ccc(/C=N/NC(=O)c2ccc(CSc3nncn3C)cc2)cc1OC ?
MT1-MMP act inh: 2; Env fusion inh: -4; Yeast UUG start: -22; eIF4H FP inh: 0; Rce1 inh: inactive; PABP polyA inh: -2; CSC inhib: -10; MT1-MMP act inh RFP: 2

What do the screens show for `N#CC1(c2ccc(NC(=O)c3ccccc3F)cc2)CCCC1`?
MT1-MMP act inh: 5; Yeast UUG start: -27; eIF4H FP inh: 0; Rce1 inh: inactive; PABP polyA inh: 19; CSC inhib: 10; MT1-MMP act inh RFP: -5

How did CCn1c(C)cc(/C=C2/SC(=S)NC2=O)c1C do in these assays?
MT1-MMP act inh: 0; Env fusion inh: 11; eIF4H FP inh: 37; Rce1 inh: inactive; PABP polyA inh: 5; CSC inhib: -13; MT1-MMP act inh RFP: 3

What do the screens show for `CCOc1cccc2sc(N(CCCN(C)C)C(=O)c3ccc(S(=O)(=O)N4CCCCCC4)cc3)nc12`?
MT1-MMP act inh: 4; Env fusion inh: -11; Yeast UUG start: 14; eIF4H FP inh: -6; Rce1 inh: inactive; PABP polyA inh: 10; CSC inhib: 0; MT1-MMP act inh RFP: 2

How did CCc1nnc(NC(=O)/C=C/c2ccco2)s1 do in these assays?
MT1-MMP act inh: -6; Env fusion inh: -25; eIF4H FP inh: 18; PABP polyA inh: -14; CSC inhib: 7; MT1-MMP act inh RFP: 9

Results for CN(C(=O)CC1C(=O)NCCN1C/C=C/c1ccccc1)C1CCOCC1 (centres undefined) ?
MT1-MMP act inh: 1; Env fusion inh: -13; eIF4H FP inh: 2; Rce1 inh: inactive; PABP polyA inh: -15; CSC inhib: -6; MT1-MMP act inh RFP: 6

How did Oc1ccc(/C=N/Nc2nc(-c3cccnc3)nc3ccccc23)c(O)c1 do in these assays?
MT1-MMP act inh: -22; Env fusion inh: -1; Yeast UUG start: -34; eIF4H FP inh: 17; PABP polyA inh: -5; CSC inhib: 16; MT1-MMP act inh RFP: -3

What do the screens show for `CC(=O)CC(C)(C)S(=O)(=O)c1ccc(Oc2ccc(S(=O)(=O)C(C)(C)CC(C)=O)cc2)cc1`?
MT1-MMP act inh: 2; Yeast UUG start: -13; eIF4H FP inh: 0; PABP polyA inh: -4; CSC inhib: 2; MT1-MMP act inh RFP: 0

Results for Cc1c(C)n(CCC(=O)O)c2ccccc12 ?
MT1-MMP act inh: 1; Env fusion inh: 3; eIF4H FP inh: 4; Rce1 inh: inactive; PABP polyA inh: 8; CSC inhib: -9; MT1-MMP act inh RFP: 6

What do the screens show for `C=CCn1c(SCC(=O)N2CCN(CCO)CC2)nc2sc3c(c2c1=O)CCC3`?
MT1-MMP act inh: -4; Env fusion inh: 3; Yeast UUG start: -6; eIF4H FP inh: -8; Rce1 inh: inactive; PABP polyA inh: -4; CSC inhib: 1; MT1-MMP act inh RFP: -4

Results for CCC(C)c1ccc2oc(-c3ccc(NC(=O)Cn4cnc5c(=O)n(C)c(=O)n(C)c54)cc3)nc2c1 (centres undefined) ?
MT1-MMP act inh: 6; Env fusion inh: -30; Yeast UUG start: -19; eIF4H FP inh: -8; Rce1 inh: inactive; PABP polyA inh: 0; CSC inhib: 18; MT1-MMP act inh RFP: -15

What do the screens show for `CCNCc1cc(Cl)c(OCc2ccccc2)c(OCC)c1`?
MT1-MMP act inh: -1; Env fusion inh: -2; eIF4H FP inh: 1; Rce1 inh: inactive; PABP polyA inh: -3; CSC inhib: -8; MT1-MMP act inh RFP: -5

2 compounds picked at random from those above:
How did Oc1ccc(/C=N/Nc2nc(-c3cccnc3)nc3ccccc23)c(O)c1 do in these assays?
MT1-MMP act inh: -22; Env fusion inh: -1; Yeast UUG start: -34; eIF4H FP inh: 17; PABP polyA inh: -5; CSC inhib: 16; MT1-MMP act inh RFP: -3

What do the screens show for `CCNCc1cc(Cl)c(OCc2ccccc2)c(OCC)c1`?
MT1-MMP act inh: -1; Env fusion inh: -2; eIF4H FP inh: 1; Rce1 inh: inactive; PABP polyA inh: -3; CSC inhib: -8; MT1-MMP act inh RFP: -5

(further entries)
How did Cc1nnc(SCC(=O)N2CCOCC2)s1 do in these assays?
MT1-MMP act inh: 2; Env fusion inh: 9; Yeast UUG start: -8; eIF4H FP inh: -8; Rce1 inh: inactive; PABP polyA inh: -6; CSC inhib: -17; MT1-MMP act inh RFP: 1

What do the screens show for `COc1ccccc1/C=C/C(=O)N1CCC(c2ccccc2)C1` (centres undefined)?
MT1-MMP act inh: 1; Env fusion inh: -69; eIF4H FP inh: 2; Rce1 inh: inactive; PABP polyA inh: 0; CSC inhib: 9; MT1-MMP act inh RFP: 4

Results for CC1(C)C(=O)Nc2ccccc2N1C(=O)CSc1nnc2ccccn12 ?
MT1-MMP act inh: 0; Env fusion inh: 15; Yeast UUG start: -28; eIF4H FP inh: -8; Rce1 inh: inactive; PABP polyA inh: 4; CSC inhib: -13; MT1-MMP act inh RFP: 0

What do the screens show for `Cc1noc(C)c1-c1ccc(C(=O)Nc2ccc(C(C)C)cc2)c2occc12`?
MT1-MMP act inh: 16; Env fusion inh: -17; Yeast UUG start: -4; MT1-MMP act inh RFP: -18

What do the screens show for `CCOc1ccc(C2/C(=C(\O)c3ccc4c(c3)OCCO4)C(=O)C(=O)N2CCCN2CCOCC2)cc1` (centres undefined)?
MT1-MMP act inh: -2; Env fusion inh: -7; Yeast UUG start: 6; eIF4H FP inh: 0; Rce1 inh: inactive; PABP polyA inh: -4; CSC inhib: -28; MT1-MMP act inh RFP: 0

What do the screens show for `COc1ccc2c(c1)O[C@H](c1ccc3c(c1)OCO3)[C@@H](O)C2=O`?
MT1-MMP act inh: -2; Yeast UUG start: -5; eIF4H FP inh: 0; Rce1 inh: inactive; PABP polyA inh: -1; CSC inhib: 34; MT1-MMP act inh RFP: 6

How did Cn1c(=O)n(C)c2cc(S(=O)(=O)NCc3ccccc3)ccc21 do in these assays?
MT1-MMP act inh: 4; Yeast UUG start: -9; eIF4H FP inh: 4; Rce1 inh: inactive; PABP polyA inh: 6; CSC inhib: 3; MT1-MMP act inh RFP: -2

How did Fc1ccc(CNc2nc(-c3ccccc3)nc3ccccc23)cc1 do in these assays?
MT1-MMP act inh: 1; Env fusion inh: 13; eIF4H FP inh: 3; Rce1 inh: inactive; PABP polyA inh: 16; MT1-MMP act inh RFP: -3

Results for O=C(COC(=O)/C=C/c1cccs1)Nc1ccccc1Cl ?
MT1-MMP act inh: -2; Env fusion inh: 1; eIF4H FP inh: -1; Rce1 inh: inactive; PABP polyA inh: 0; CSC inhib: -9; MT1-MMP act inh RFP: -10

Results for O=C(Nc1ccccc1N1CCOCC1)c1ccc([N+](=O)[O-])s1 ?
MT1-MMP act inh: 5; Env fusion inh: 5; Yeast UUG start: -10; CSC inhib: 3; MT1-MMP act inh RFP: -9

What do the screens show for `COc1ccc(Cl)cc1S(=O)(=O)NC(C)C(=O)NCCCn1ccnc1` (centres undefined)?
MT1-MMP act inh: -3; Env fusion inh: 6; Yeast UUG start: -8; Rce1 inh: inactive; CSC inhib: -7; MT1-MMP act inh RFP: 0

What do the screens show for `O=C(NCc1nc2ncc(Br)cc2[nH]1)c1ccccc1`?
MT1-MMP act inh: 0; Env fusion inh: -23; Yeast UUG start: -16; eIF4H FP inh: 16; Rce1 inh: inactive; PABP polyA inh: 12; MT1-MMP act inh RFP: 6

Results for COc1ccc(N2CCN(CC(O)COC(c3ccccc3)c3ccccc3)CC2)cc1 (centres undefined) ?
MT1-MMP act inh: 3; Env fusion inh: 8; Yeast UUG start: 2; eIF4H FP inh: -12; Rce1 inh: inactive; PABP polyA inh: 2; CSC inhib: 6; MT1-MMP act inh RFP: 2

What do the screens show for `O=C(O)c1ccc2c(=O)[nH]c(CN3CCOCC3)nc2c1`?
MT1-MMP act inh: 6; Yeast UUG start: -1; eIF4H FP inh: -10; Rce1 inh: inactive; PABP polyA inh: 7; CSC inhib: -3; MT1-MMP act inh RFP: 2

What do the screens show for `CCOc1ccc(CCNC(=O)COC(=O)CNS(=O)(=O)c2ccc(C)cc2)cc1OCC`?
MT1-MMP act inh: 1; Env fusion inh: -5; Yeast UUG start: 2; Rce1 inh: inactive; CSC inhib: 34; MT1-MMP act inh RFP: 3

How did CCCn1c(SCC(=O)NC2CCCc3ccccc32)n[nH]c1=O (centres undefined) do in these assays?
MT1-MMP act inh: -2; Env fusion inh: 1; eIF4H FP inh: 0; Rce1 inh: inactive; PABP polyA inh: 44; CSC inhib: -17; MT1-MMP act inh RFP: -1

Results for N#CC(C#N)=C1NC2(CCCC2)Cc2ccccc21 ?
MT1-MMP act inh: 2; Yeast UUG start: -33; eIF4H FP inh: -7; Rce1 inh: inactive; PABP polyA inh: 27; CSC inhib: -8; MT1-MMP act inh RFP: 2

Results for C[C@@H]1[C@H]2CCCC[C@H]2CN(C(=O)OC(C)(C)C)[C@@H]1c1cn(Cc2ccccc2)c2ccc(F)cc12 ?
MT1-MMP act inh: 0; Env fusion inh: 1; Yeast UUG start: -2; MT1-MMP act inh RFP: 0

How did CN1C(=O)[C@@H]2[C@H](C1=O)[C@@H]1C(=O)Nc3ccccc3C(=O)N1[C@@H]2c1ccc(F)cc1 do in these assays?
MT1-MMP act inh: 0; Env fusion inh: 4; Yeast UUG start: -7; eIF4H FP inh: -9; Rce1 inh: inactive; PABP polyA inh: 3; CSC inhib: 3; MT1-MMP act inh RFP: 3

What do the screens show for `CCc1nc2ccc(C(=O)NCCN3CCNC3=O)cn2c1N(CCC(C)C)CCN(C)C`?
MT1-MMP act inh: -1; Env fusion inh: -1; Yeast UUG start: -9; MT1-MMP act inh RFP: 4

How did CN(C)CCC1CCN(c2cc(C#N)c(C#N)cc2[N+](=O)[O-])CC1 do in these assays?
MT1-MMP act inh: 1; Env fusion inh: 1; Yeast UUG start: -9; eIF4H FP inh: 6; Rce1 inh: inactive; PABP polyA inh: 23; CSC inhib: 43; MT1-MMP act inh RFP: -2

What do the screens show for `Cc1cc(NC(=O)CN(C)S(=O)(=O)c2cccc(Cl)c2)no1`?
MT1-MMP act inh: 0; Env fusion inh: 7; eIF4H FP inh: -5; Rce1 inh: inactive; PABP polyA inh: 15; CSC inhib: -13; MT1-MMP act inh RFP: -1

What do the screens show for `CC(C)Cc1c2c([nH]c(=S)c1C#N)CCCC2`?
MT1-MMP act inh: 2; Env fusion inh: -2; Yeast UUG start: -14; eIF4H FP inh: 2; Rce1 inh: inactive; PABP polyA inh: -6; CSC inhib: 1; MT1-MMP act inh RFP: 2

Results for Cc1ncc(S(=O)(=O)c2ccccc2)c(-c2ccccc2Cl)n1 ?
MT1-MMP act inh: -5; Env fusion inh: -54; Yeast UUG start: -10; eIF4H FP inh: 5; Rce1 inh: inactive; PABP polyA inh: -4; CSC inhib: -5; MT1-MMP act inh RFP: 0

Results for CC(=O)NC(Cc1ccc(C(C)C)cc1)C(=O)NC1CCN(C(=O)c2cccc(C)c2)CC1 (centres undefined) ?
MT1-MMP act inh: -1; Env fusion inh: 10; Yeast UUG start: 9; eIF4H FP inh: 0; Rce1 inh: inactive; PABP polyA inh: 5; CSC inhib: -14; MT1-MMP act inh RFP: -5

How did COc1ccc(CNC(=O)COC(=O)CNC(=O)c2sc3ccccc3c2Cl)cc1OC do in these assays?
MT1-MMP act inh: 1; Env fusion inh: 2; Yeast UUG start: -13; CSC inhib: -3; MT1-MMP act inh RFP: 5

Results for COc1cc(C(N)=O)ccc1OCc1ccccc1 ?
MT1-MMP act inh: 0; Env fusion inh: -154; Yeast UUG start: -13; eIF4H FP inh: 4; Rce1 inh: inactive; PABP polyA inh: -5; CSC inhib: 18; MT1-MMP act inh RFP: 3

Results for CC(NC(=O)c1cc(-c2ccccc2)nc2ccccc12)C1CCCO1 (centres undefined) ?
eIF4H FP inh: -8; Rce1 inh: inactive; PABP polyA inh: -9; CSC inhib: 7

An unsorted share of the library; 3% or so of the library scored in one or more.
